fixLJ activator: activators of Burkholderia fixLJ two-component system, primary screen, B. multivorans, GFP reporter; z-score (no concentration beside the values); B. multivorans fixK-promoter GFP reporter, 18 h; active compounds read high; 29,000 compounds, 0.3% hits; AID 1918990, 2023;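 active means replicate mean overnight rise in green fluorescent reporter signal, 3 or more SD over negative controls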;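 further: score is relative to vehicle wells of the plate; 300 nL library stock went into each well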
* = called active by the depositor; & = joins results of further samples. Only part of the results is shown; the hit share may differ from the screen's.

Start of the data: the first 17 entries, ahead of the listing:
SMILES	fixLJ activator
Cc1c(CN2CCCn3nc(C(C)O)cc3C2)[nH]c2ccc(Cl)cc12 (stereo not drawn)	-1.6
Clc1ccc(C(c2ccccc2Cl)C(Cl)Cl)cc1 (stereo not drawn)	-0.82
COc1ccc(F)cc1-c1cc(-c2ccn(C)c2)nc(N)c1C#N	-0.88
COc1cccc(OCc2nc3ccccc3n2C)c1	-1.2
COc1ccccc1C(=O)Nc1cc2c(cc1N1CCOCC1)n(C)c(=O)n2C	1.3
COc1ccc(OC)c(CNC(=O)c2nn(-c3ccc(OC)c(Cl)c3)c(=O)c3c2c2ccccc2n3C)c1	0.68
CSc1nc2sc3c(c2c(=O)n1Cc1ccccc1)CCC(C(C)(C)C)C3 (stereo not drawn)	-0.1
CC(NC(=O)Cn1ncc2c3ccccc3n(Cc3ccc(F)cc3)c2c1=O)c1ccccc1 (stereo not drawn)	-1.8
CCOc1ccc(C(=O)c2cn(Cc3ccc(F)cc3)c3ccc(F)cc3c2=O)cc1	0.64
CC1(C(=O)NC2CCOCC2Oc2ccc(C(N)=O)cc2)CCCCC1 (stereo not drawn)	0.07
CN(C)CCOC(c1ccccc1)c1ccccc1	-1.3&0.05
CCCOc1cccc(C2c3c(oc4ccc(F)cc4c3=O)C(=O)N2Cc2ccc3c(c2)OCO3)c1 (stereo not drawn)	-2.7
CCSc1nnc2c(n1)OC(c1cc(OC)c(OC)c(OC)c1)Nc1ccccc1-2 (stereo not drawn)	-0.75
COc1ccc(-c2noc(CN(C(C)C)S(=O)(=O)c3ccc(Br)cc3)n2)cc1	0.8
CN(C)c1ccc(/C=C/c2noc(-c3ccccc3O)n2)cc1	0.54
CN(C)S(=O)(=O)CC1CN(C(=O)c2ccccc2)CC1O (stereo not drawn)	0.42
Cc1nc(CCCNC(=O)C2CCCN(C(=O)N(C)C)C2)sc1C (stereo not drawn)	0.2

All compounds of this part, previewed entries included:
SMILES	fixLJ activator
Cc1c(CN2CCCn3nc(C(C)O)cc3C2)[nH]c2ccc(Cl)cc12 (stereo not drawn)	-1.6
Clc1ccc(C(c2ccccc2Cl)C(Cl)Cl)cc1 (stereo not drawn)	-0.82
COc1ccc(F)cc1-c1cc(-c2ccn(C)c2)nc(N)c1C#N	-0.88
COc1cccc(OCc2nc3ccccc3n2C)c1	-1.2
COc1ccccc1C(=O)Nc1cc2c(cc1N1CCOCC1)n(C)c(=O)n2C	1.3
COc1ccc(OC)c(CNC(=O)c2nn(-c3ccc(OC)c(Cl)c3)c(=O)c3c2c2ccccc2n3C)c1	0.68
CSc1nc2sc3c(c2c(=O)n1Cc1ccccc1)CCC(C(C)(C)C)C3 (stereo not drawn)	-0.1
CC(NC(=O)Cn1ncc2c3ccccc3n(Cc3ccc(F)cc3)c2c1=O)c1ccccc1 (stereo not drawn)	-1.8
CCOc1ccc(C(=O)c2cn(Cc3ccc(F)cc3)c3ccc(F)cc3c2=O)cc1	0.64
CC1(C(=O)NC2CCOCC2Oc2ccc(C(N)=O)cc2)CCCCC1 (stereo not drawn)	0.07
CN(C)CCOC(c1ccccc1)c1ccccc1	-1.3&0.05
CCCOc1cccc(C2c3c(oc4ccc(F)cc4c3=O)C(=O)N2Cc2ccc3c(c2)OCO3)c1 (stereo not drawn)	-2.7
CCSc1nnc2c(n1)OC(c1cc(OC)c(OC)c(OC)c1)Nc1ccccc1-2 (stereo not drawn)	-0.75
COc1ccc(-c2noc(CN(C(C)C)S(=O)(=O)c3ccc(Br)cc3)n2)cc1	0.8
CN(C)c1ccc(/C=C/c2noc(-c3ccccc3O)n2)cc1	0.54
CN(C)S(=O)(=O)CC1CN(C(=O)c2ccccc2)CC1O (stereo not drawn)	0.42
Cc1nc(CCCNC(=O)C2CCCN(C(=O)N(C)C)C2)sc1C (stereo not drawn)	0.2
Cc1ccc(CNC(=O)CN(c2ccc(C(C)C)cc2)S(=O)(=O)c2c(C)n[nH]c2C)cc1	-2.1
COc1ccc2oc(=O)cc(CN3CCN(c4ccccc4F)CC3)c2c1	-0.53
CC(=O)OCC(=O)NCCCOc1cccc(CN2CCCCC2)c1	-1.9
Cc1cc(C(F)(F)F)nc(CCNC(=O)CCN2CCCCCCC2)n1	-4.1
COc1ccc(C)cc1NS(=O)(=O)c1ccc2c(c1)n(C)c(=O)n2C	-1.3
CCOc1ccc(CCNC(=O)c2cc3c(-c4ccccc4F)nn(C)c3s2)cc1OCC	0.32
Cc1ccc(-n2nc3ccc(NC(=O)Cc4ccc(Cl)cc4)cc3n2)cc1	-1.5
CCCCOc1ccc(C(=O)Nc2ccc(S(=O)(=O)Nc3nc(C)cc(C)n3)cc2)cc1	-3.7
N[C@@H](Cc1ccc(O)c(O)c1)C(=O)O	-1.1&-2.6
CC(C)n1cnnc1CCNC(=O)c1ccc(-c2cc(=O)[nH]c(N)n2)cc1	0.09
CC(C)(C)C(=O)Cn1c(=O)n(CCCCCC(=O)NCc2ccccc2Cl)c(=O)c2sccc21	-2.1
CCC(=O)N1CCc2cc(Br)cc(S(=O)(=O)N(CC)Cc3ccccc3)c21	-1.1
COc1c[nH]c(C(=O)NCCCSCc2ccccc2F)cc1=O	0.31
CCc1ccccc1N1CC(c2nc3ccccc3n2CCCOc2ccc(Cl)cc2)CC1=O (stereo not drawn)	-0.96
Cc1nc2ccc(NC(=O)N3CCCN(c4ncccn4)CC3)cc2nc1C	-0.42
CC(=O)N1CCc2c(sc3c2c(=O)n(-c2ccccc2C)c(=O)n3CC(=O)Nc2ccccc2)C1	-1.5
O=C(c1ccc[nH]1)N1CCCC(c2nccn2Cc2ccncc2)C1 (stereo not drawn)	1.1
CCCCOc1cccc(NC(=O)c2cccc(C(=O)Nc3cccc(OCCCC)c3)c2)c1	-2.6
Cc1ccc(C)c(N2CCN(C(=O)Cn3nc(Cc4cccnc4)c4ccccc4c3=O)CC2)c1	-1.8
Cc1ccc2oc(-c3cccc(NC(=O)c4cccc5c(Br)cccc45)c3)nc2c1	-0.14
Fc1ccccc1N1CCN(c2nc3ccccc3c3nc(-c4ccccc4)nn23)CC1	-0.22
CCOC(=O)C(C)(N)Cc1ccc(O)c(O)c1 (stereo not drawn)	0.39
CCc1cccc(NC(=O)c2nnn(Cc3ccc(SC)cc3)c2N)c1	0.51
COc1ccc(N2CCN(CCCNC(=O)c3nnc(Cc4ccccc4Cl)o3)CC2)cc1	0.11
CC(=O)Nc1ccccc1NC(=O)CN1CCOCC1CC(C)C (stereo not drawn)	0.15
Fc1ccc(-c2nc3c4c(-c5ccccc5)c(-c5ccccc5)oc4ncn3n2)cc1	-1.7
Cc1ccc(-c2c(C(=O)NCCc3ccccc3)oc(=O)c3ccccc23)cc1	1.6
COc1ccc(Cn2c(=O)[nH]c3cc(C(=O)N4CCN(c5ccccc5)CC4)ccc3c2=O)cc1	-0.27
Cc1cccc(N2CCN(C(=O)Cn3c(C)c4cnn(-c5ccccc5)c(=O)c4c3C)CC2)c1C	-0.22
Cc1ccccc1NC(=O)c1c(NC(=O)c2ccncc2)sc2c1CCC(C(C)(C)C)C2 (stereo not drawn)	1.6
CCC(NC(=O)c1cccc(OC)c1F)c1nc(C)c(C)s1 (stereo not drawn)	0.15
Cc1c(CCC(=O)NCCc2ccccc2F)c(=O)oc2cc(O)ccc12	-2.5
Cc1ccccc1-c1nc(CN2CCN3C(=O)CNC(=O)C3C2)c(C)o1 (stereo not drawn)	0.31
New compounds follow:
SMILES	fixLJ activator
CCNC(=O)c1c(NC(=O)Cc2coc3cc(C)cc(C)c23)sc2c1CCCC2	-2.5
O=C(c1ccc2c(c1)N(Cc1ccccc1)C(=O)c1ccccc1S2(=O)=O)N1CCN(Cc2ccccc2)CC1	0.38
Cc1ccc(CNC(=O)CCN2C(=O)C(C)Oc3ccc(C)cc32)cc1 (stereo not drawn)	0.62
Cc1cc(C(=O)NC2CCN(C(=O)c3c(Cl)c(C)nn3C)CC2O)no1 (stereo not drawn)	0.79
COc1ccc(CCNCc2c(C(=O)O)c(C)n(Cc3cccc(Cl)c3)c2C)c(OC)c1OC	-1.1
CCOC(=O)c1ccc(N2C(=O)c3n[nH]c(-c4ccco4)c3C2c2ccc(O)c(OC)c2)cc1 (stereo not drawn)	-1
Cc1cccc(C(=O)n2nc(-c3cccnc3)nc2NCc2ccccc2)c1	1.5
Cc1cc(C)c(NC(=O)CCCn2c(C)c3cnn(-c4ccccc4)c(=O)c3c2C)c(C)c1	0.75
COc1ccc(S(=O)(=O)N2CCCN(CC(=O)Nc3ccc(OC)cc3OC)CC2)cc1	0.39
CN(C)CC(=O)Nc1cccc(NC(=O)CC2CCCOC2)c1 (stereo not drawn)	-2
Cc1ccc(NC(=O)Cn2c(=O)n(CCCCC(=O)NCc3ccc4c(c3)OCO4)c(=O)c3ccccc32)cc1	-0.24
COc1cc2c(cc1OC)[C@@]13CCN4CC5=CCOC6CC(=O)N2C1[C@H]6[C@H]5C[C@H]43 (stereo partly drawn)	-1.4
COc1ccc(Cl)cc1NC(=O)CCCn1c(C)c2cnn(-c3ccccc3)c(=O)c2c1C	-1.2
CCn1cc(NC(=O)N2CCCN(Cc3ccc(F)cc3)C(C(C)C)C2)cn1 (stereo not drawn)	-0.88
COc1ccccc1CNC(=O)CCn1c(=O)c2ccccc2n(CC(=O)Nc2ccc(C)cc2Cl)c1=O	0.18
COc1cc(NC(=O)NCCc2nnc(N)s2)cc(OC)c1OC	0.12
Cc1ccccc1NC(=O)Cn1nnc(C(=O)NCc2cccs2)c1N	-1
O=c1oc2ccccc2cc1-c1cn2cc(Cc3ccc(Cl)cc3)sc2n1	-0.77
COc1ccc(/C=C(/C#N)c2nc(-c3ccc(-c4ccccc4)cc3)cs2)cc1	0.08
COc1ccc(C(C)C)cc1S(=O)(=O)NCCc1c(C)[nH]c2c(Cl)cccc12	-1.4
COc1ccc(CCNC(=O)CCCn2c(=O)c3ccccc3n(Cc3ccccc3)c2=O)cc1OC	-2.4
CNc1nc(C)cc(NCC(O)C23CC4CC(CC(C4)C2)C3)n1 (stereo not drawn)	-1.4
COc1ccc(-c2[nH]c(-c3cccc(OC)c3)nc2SCC(=O)Nc2ccc3c(c2)OCO3)cc1	0.16
COc1ccc(OCc2nc(C(C)n3nc(C)cc3C)n[nH]2)cc1 (stereo not drawn)	-3
N#Cc1cccc(C(=O)N2CC[C@@](O)(c3ccccc3)[C@H]3CCCC[C@@H]32)c1	-1.8
Cc1ccccc1OC(=O)c1nc(SCc2ccccc2F)ncc1Cl	2.3
Cc1ccc(C)c(-n2c3nc(=O)[nH]c(=O)c-3cc3c(C)nn(-c4ccccc4)c32)c1	-0.25
O=C(C1CCCN(S(=O)(=O)c2ccc(Br)s2)C1)N1CCN(c2cccc(Cl)c2)CC1 (stereo not drawn)	0.66
COc1cc(OC)c2c(C)c(CC(=O)N3CCCCC3)c(=O)oc2c1	-2
Cc1ccc(OCCn2nnc3sc4c(c3c2=O)CCC(C)C4)cc1 (stereo not drawn)	-1
Cc1cc(N2CCC(C)CC2)nc2ccc(NC(=O)Cc3ccccc3Br)cc12	-0.25
COc1cccc(SCC(=O)Nc2c(C)cnn2CC(C)C)c1	0.21
Cc1cc(C)n(-c2ccc(F)cc2CN(C)Cc2nnc(C)o2)n1	-2.6
COc1ccc(F)c(CN2CCCC(O)(CN3CCNCC3)C2=O)c1 (stereo not drawn)	0.01
Cc1nnsc1C(=O)N1CC2CCC1CN(C(=O)c1ccncc1)C2 (stereo not drawn)	0.19
O=C(CN1CC(O)C(Cc2ccncc2)C1)NCc1cccs1 (stereo not drawn)	-0.6
COc1cccc(N2CCN(C(=O)Cn3ncc4c3-c3ccccc3OC4)CC2)c1	-1
COc1ccc(N(C)C(=O)c2cc3c(s2)-c2ccccc2OC3)cc1	-0.5
COc1cccc(NS(=O)(=O)c2ccc3[nH]cc(C(=O)NCCc4ccccc4)c(=O)c3c2)c1	-1.3
CCOc1ccc(CN(Cc2cnc(NC(C)C)nc2)C2CC2)cc1	0.04
CCOc1ccccc1Nc1nc2ccccc2c2nncn12	-0.95
CCOC(=O)CC(NC(=O)Cn1nnc(-c2ccccc2C)n1)c1ccc(OC)cc1 (stereo not drawn)	-4.3
COc1ccc(N2CCN(C(=O)c3cn(C4CCCCC4)c(=O)c4c3c3ccccc3n4C)CC2)cc1	-2.6
Cc1ccc(NC(=O)Cn2c(=O)n(CCCCC(=O)NCCc3ccccc3)c(=O)c3ccccc32)cc1	-1.7
CCc1cccc(NS(=O)(=O)c2ccc3c(c2)n(C)c(=O)c(=O)n3C)c1	0.39
COc1ccc(C2CC(=O)c3cnc4c(-c5ccccc5)c(C)nn4c3C2)c(OC)c1 (stereo not drawn)	0.16
COc1ccccc1Nc1c2c(nc3ccc(NC(=O)/C=C/c4cc(OC)c(OC)c(OC)c4)cc13)CCCC2	2.5
CCCC(=O)Nc1ccc(NC(=O)C(N)Cc2cnc[nH]2)cc1OC (stereo not drawn)	-1.3
COc1ccc(N(CC(=O)N2CCc3ccccc3C2)S(=O)(=O)c2ccc(C)cc2)cc1Cl	-1
C=C(C)Cn1c(SCC(=O)Nc2cccc(Cl)c2)nc2sc3c(c2c1=O)CCCC3	0.37
The results go on.
SMILES	fixLJ activator
COc1ccc(-c2cc(-c3ccccc3)nc(SCC(=O)Nc3ccccc3F)c2C#N)cc1	0.82
Cc1cc(C(=O)N2CC(O)C(Cc3ccncc3)C2)c2c(C)nn(C)c2n1 (stereo not drawn)	1.6
CCc1ccc(NC(=O)C2CCCN(S(=O)(=O)c3c(C)[nH]c(=O)[nH]c3=O)C2)cc1 (stereo not drawn)	-0.84
CCN(Cc1ccncc1)C(=O)C1CCC(=O)N(CCN2CCOCC2)C1 (stereo not drawn)	-1.4
Cc1ccc(CNC(=O)CCCCCn2c(=O)c3sccc3n(CC(=O)N3CCCCC3C)c2=O)cc1 (stereo not drawn)	-2
COc1ccccc1C1C=C(c2ccc(F)cc2)Nc2nc(-c3ccc(Cl)cc3)nn21 (stereo not drawn)	-1.7
CC(C)c1ccc(C2c3c(-c4ccccc4O)n[nH]c3C(=O)N2CCc2ccccc2)cc1 (stereo not drawn)	-0.44
CCCn1ccnc1CN1CCCC2(CCC(=O)N(CCOC)C2)C1 (stereo not drawn)	0.79
COc1cc2c(=O)c(C(=O)c3ccc(C)c(C)c3)cn(Cc3ccccc3)c2cc1OC	0.89
CCOC(=O)c1cccc(NC(=O)C(C)n2c(C)c3cnn(-c4ccccc4)c(=O)c3c2C)c1 (stereo not drawn)	-1.7
